Compound activity (PubChem)
TRPML1 blocker: human mucolipin-1 channel inhibition. Q9GZU1. TRPML1-inducible cells, Ca2+ dye fluorescence, FDSS; hits give low values; inhibition of EC80 agonist-evoked calcium signal. activity change, negative = inhibition, % (concentration not given with the values). hit rate 0.02% among 390,000; in the data active means activity change below about -50%; inconclusive means about -30% to -50%; inactive means above about -30%;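 note: stimulus is agonist 54-4 at its EC80 concentration; % is set by controls: 0 for no effect and ±100 for the full control effect; compound concentration not given in the record; the text of the record puts the active cut at -80%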
Target sequence (Q9GZU1 whole entry, looked up): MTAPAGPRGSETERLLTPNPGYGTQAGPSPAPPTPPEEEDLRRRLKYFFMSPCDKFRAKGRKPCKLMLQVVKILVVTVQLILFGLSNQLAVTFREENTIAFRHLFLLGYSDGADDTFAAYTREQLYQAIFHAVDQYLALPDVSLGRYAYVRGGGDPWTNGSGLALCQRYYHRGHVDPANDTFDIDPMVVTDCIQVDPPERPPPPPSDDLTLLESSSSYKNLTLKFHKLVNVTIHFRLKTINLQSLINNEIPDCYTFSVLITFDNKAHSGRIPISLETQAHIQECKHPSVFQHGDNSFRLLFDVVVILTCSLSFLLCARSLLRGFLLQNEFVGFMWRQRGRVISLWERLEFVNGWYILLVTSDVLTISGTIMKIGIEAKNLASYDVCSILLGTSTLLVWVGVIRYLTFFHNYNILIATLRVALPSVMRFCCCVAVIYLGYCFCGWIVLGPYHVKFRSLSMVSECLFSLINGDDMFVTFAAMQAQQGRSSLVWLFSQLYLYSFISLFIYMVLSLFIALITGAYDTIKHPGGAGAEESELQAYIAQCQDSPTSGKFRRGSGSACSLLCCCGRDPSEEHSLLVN
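TRPML1-DL cells, Tet-induced overnight (~16 h, 37 °C) at 1,500 cells/well, were loaded with Ca8 no-wash dye plus quencher for 45-90 min at room temperature. Compounds were pinned during FDSS kinetic reading; agonist 54-4 at EC80 (4 uM final) then added.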
ClpP mod: qHTS Assay for Activators of ClpP; ATP-dependent Clp protease proteolytic subunit (Bacillus subtilis (strain 168)), P80244; purified B. subtilis ClpP, FRET peptide cleavage, 20 min; Potency, µM (series often up to 57.5 µM), without a hit: at the highest dose activity change, negative = active; hit rate 1.9% among 340,000; AID 651965, 2013; active = well fitted falling curve with a large enough effect; inconclusive = small, poorly fitted or top-dose-only effect; inactive = no such curve, though single readings can be large or run the other way; note: potency is the fitted concentration of half-maximal effect; the source files actives as falling curves though it sought activators and does not explain the sign; nearly all actives have a fitted effect of over 65% in size; many hits overshoot -100%
Target sequence (P80244 whole entry, looked up): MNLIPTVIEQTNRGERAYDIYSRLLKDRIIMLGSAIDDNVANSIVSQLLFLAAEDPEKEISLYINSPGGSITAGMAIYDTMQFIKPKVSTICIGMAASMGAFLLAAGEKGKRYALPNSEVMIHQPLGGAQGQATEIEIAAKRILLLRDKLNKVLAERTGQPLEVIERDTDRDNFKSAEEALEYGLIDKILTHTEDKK
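Buffer: 100 mM Tris/HCl pH8, 100 mM KCl, 0.05% low protease BSA, 2.5% glycerol, 0.01% Tween-20. ClpP 10 microg/mL final; 20 min RT; delta FRET normalized to ADEP and DMSO controls.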
TRPML1 ag: activates the human TRPML1 channel | Q9GZU1 | TRPML1-expressing cells, Ca2+ dye fluorescence, FDSS; host cell line not named in the record; reference of the full effect not given here | activation, % (concentration not given with the values) | hit rate 0.12% among 410,000 | AID 624414; in the data active = activation above about 50%; inconclusive = about 30% to 50%; inactive = below about 30%; note: 0% is about no effect; the text of the record puts the active cut at 80%
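In this qHTS format, compounds were pin-transferred onto Ca8-dye-loaded TRPML1-DL cells induced with Tet overnight, and intracellular Ca2+ fluorescence was recorded kinetically for 110 s after a 10 s baseline. A subsequent 4uM final 54-4 (EC80) addition followed by a second 110 s read served as the antagonist phase.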
Menin MLL FP FL: menin-MLL binding inhibition, fluorescein peptide; Fluorescence polarization, fluorescein-MLL peptide displacement from menin; 290,000 tested, under 10 active; AID 1766; FP activity change, % at 61.4 µM; inconclusive = falling polarisation curve, or a change in total fluorescence; inactive = total fluorescence flat and polarisation flat or rising; no compound was filed as active; the % refers to the polarisation; negative = inhibition;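 note: % of control where 0% means no effect; inhibitors lower the polarisation; unlabelled MLL peptide was the positive control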
gsp ag: agonists of gsp mutant (McCune-Albright syndrome) | gsp mutant cells, cAMP HTRF, 30 min; control for the full effect not named in the record | Potency, µM (top dose mostly 76.9 µM), for inactives: top-dose activation (cAMP increase), hits mostly activators | hit rate 0.13% among 340,000 | AID 624287; active = well fitted activation curve with a large enough effect; inconclusive = small, poorly fitted or top-dose-only effect, or another doubt; inactive = no such curve, though single readings can be large or run the other way; cell line not stated here;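 note: phosphodiesterase inhibitor Ro 20-1724 added with compounds to block cAMP breakdown; potency is the fitted concentration of half-maximal effect; nearly all actives have a fitted effect of over 60% in size; about a fifth of the inactives were tested at one dose only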
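Cells in DMEM/10% FBS with G418 were pretreated with compounds in DMSO plus […] (300 uM stock) for 30 min at 37C. cAMP was measured by HTRF (cAMP-d2 plus anti-cAMP antibody-K) after 30 min at room temperature.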
gsp antagonist: antagonizes gsp, the McCune-Albright syndrome mutation | gsp-mutant cells, cAMP HTRF, 30 min; control for the full effect not named in the record | Potency, µM (doses to about 76.9 µM), without a hit: at the highest dose activity change, negative = inhibition, most hits filed as inhibitors | hit rate 0.4% among 340,000; active = falling curve of any shape with a large fitted effect; inconclusive = falling curve, mostly with a smaller effect; inactive = flat or rising curve; cell line not stated here;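 note: intracellular cAMP measured with PDE inhibitor Ro 20-1724 present during compound exposure; potency is the fitted concentration of half-maximal effect; % is set by controls: 0 for no effect and ±100 for the full control effect; nearly all actives have a fitted effect of over 65% in size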
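Cells in G418 medium, seeded 16-24 h, 37C; buffer exchange to DPBS + 1 mM CaCl2, 0.5 mM MgCl2, 0.05% BSA; cpds in DMSO + […] (300 uM stock), 30 min 37C; HTRF cAMP detection.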
Active calls of the source: *; ? = inconclusive; nt = no result given; & = joins results of further samples; [ ] = dose if it differs, or a comment.

Molecule,TRPML1 blocker,ClpP mod,TRPML1 ag,Menin MLL FP FL,gsp ag,gsp antagonist
Nc1nonc1-n1nnc(C(=O)c2ccccc2)c1-c1ccccc1,17.4,-0.4%,0.7,9.4,-20.6%,-3.2%
CCOc1ccc(Nc2nc(Cc3nnc(SCC(=O)NC4CCCC4)n3C)cs2)cc1,6.7,-0.2%,-0.2,3.3,-14.5%,4.3%
O=C(NC1(O)C(=O)c2ccccc2C1=O)c1c(Cl)cccc1Cl,-9.1,nt,0.7,-0.1,9.1%[15.4 µM],7.7%
O=C(CCc1ccc(S(=O)(=O)NCCc2ccccc2)cc1)Nc1ccc2c(c1)OCCO2,3.4,1.1%,1.8,0.1,-0.7%,-0.4%
Cc1noc(C)c1CSc1nc2ccccc2nc1NS(=O)(=O)c1ccc(Cl)cc1,-2.5,-16.4%,4.7,4.1,18.9%,31.6µM*
CCN(CC)CCOc1ccc2c(c1)C(=NO)c1cc(OCCN(CC)CC)ccc1-2,25.6,-0.6%,0.3,2.6,12.8%,-15.2%
CCn1c(SCC(=O)Nc2cc(C)on2)nnc1-c1ccc(S(=O)(=O)N2CCN(C)CC2)cc1,5.8,-27.8%,-0.1,2.2,24.8%,-1.0%
COc1ccc(CC(=O)NNS(=O)(=O)c2cccc([N+](=O)[O-])c2)cc1OC,11.5,nt,-0.7,-0.5,15.4%[15.4 µM],3.6%
CCN(C(=O)c1cc(S(=O)(=O)N2CCc3ccccc32)cn1C)c1ccccc1,-2.3,0.9%,-0.3,-3.1,-36.7%[inhibitor],-5.5%
CN1CCN(NC(=O)c2cccc(S(=O)(=O)N3CCCCCC3)c2)CC1,-14.0,2.1%,-0.9,-0.1,-12.3%,11.3%
CC1=NN(S(=O)(=O)c2ccc(F)cc2)C(=O)c2ccccc2O1,-2.9,1.0%,0.5,0.7,13.0%,1.6%
COc1ccc(C(=O)CN2C(=O)NC(C)(c3ccccc3)C2=O)cc1OC (centres undefined),-5.4,-3.1%,0.0,-1.6,-12.0%,-0.2%
CCOc1ccc(CCNC(=O)C2Cc3ccccc3N2C(=O)CC)cc1OCC (centres undefined),0.1,-0.2%,0.7,nt,nt,nt
O=C(OCC(=O)N1CCCCCC1)c1ccc(F)cc1F,3.9,nt,-0.2,nt,-7.3%[15.4 µM],3.3%
COCCNC(=O)NC(=O)COC(=O)Cc1ccc2c(c1)OCCO2,-3.3,1.0%,-0.7,-0.8,?,4.2%
Cn1c(C(F)(F)F)nc2c(=O)oc3ccccc3c21,-8.4,-1.8%,0.1,0.1,3.8%,16.1%
CCCCCCCC(=O)NNC(=O)c1c(O)c2ccccc2n(CC)c1=O,15.0,nt,6.6,3.6,4.2%,-11.8%
CCOC(=O)c1[nH]c(C)c(/C(O)=C2\C(=O)C(=O)N(CCCN3CCOCC3)C2c2cccnc2)c1C (centres undefined),-4.6,-2.6%,0.0,1.9,-14.8%,6.1%
COC(=O)c1cccc(N(C(=O)c2ccco2)C(C(=O)NC2CCCC2)c2ccco2)c1 (centres undefined),-12.8,-1.4%,-0.6,-1.2,-14.7%,0.1%
O=C(Nc1ncc2c(n1)CC(c1cccc(Cl)c1)CC2=O)c1ccco1 (centres undefined),-21.3,-2.5%,0.2,nt,2.7%,-12.7%
O=C(c1ccc(N2CCCCC2)c([N+](=O)[O-])c1)N(c1ccccn1)c1ccccn1,-26.9,nt,1.0,-1.7,-2.4%[15.4 µM],-5.5%
CCOc1ccc(C(=O)N2CCC(c3nnc(-c4ccccc4OC)o3)CC2)cc1,10.1,-10.1%,2.0,nt,nt,nt
CN1c2ccccc2-c2nc3ccccc3n2C1c1ccccn1 (centres undefined),-2.1,-1.0%,-0.3,3.7,-10.7%,-0.4%
Cc1c(NC(=O)C2CCCN(S(=O)(=O)c3cnc[nH]3)C2)c(=O)n(-c2ccccc2)n1C (centres undefined),5.7,1.6%,0.0,2.1,-4.4%,-0.2%
CCOc1ccc(NC(=O)c2cc3sc(Cl)cc3n2CC)cc1,?,-2.5%,2.9,nt,nt,nt
COc1ccc(CCNc2ccncn2)cc1,-6.6,0.8%,0.5,-3.5,0.3%,12.2%
C=CCn1c(COc2ccccc2)nnc1SCC(=O)N/N=C/c1cc(Cl)ccc1O,-25.1,2.2%,0.4,4.9,10.5%,-9.6%
CCS(=O)(=O)N1CCC(C(=O)NC2CCCCCCC2)CC1,-6.4,1.4%,-0.3,2.3,-16.3%,10.8%
Cc1ccc2c(CC(=O)Nc3c(C(=O)c4ccc(F)cc4)oc4ccccc34)coc2c1C,26.5,-4.7%,1.3,nt,nt,nt
Cc1ccc(S(=O)(=O)CC(=O)Nc2ccc(F)c(F)c2F)cc1,11.1,nt,0.3,4.3,-33.0%[inhibitor],5.1%
COc1cc(OC)c(OC)cc1/C=N/NC(=O)c1cnccn1,-2.0,nt,-0.4,-0.3,8.3%,-1.0%
CCCCn1c(N)c(N(CC(C)C)C(=O)CCC2CCCCC2)c(=O)[nH]c1=O,-17.9,2.8%,-0.1,nt,-2.1%,-2.6%
CCCC(=O)NC(Nc1ccc(S(=O)(=O)Nc2ncccn2)cc1)(C(=O)OCC)C(F)(F)F (centres undefined),42.8,-0.3%,-0.3,-0.4,-29.0%,-1.1%
Cc1nc2ccc(NC(=O)/C=C/C(=O)O)cc2nc1C,-2.4,nt,0.5,0.7,-1.6%[15.4 µM],-2.5%
CCCCCC1CC(=O)N(Cc2ccccc2)C(=O)N1 (centres undefined),9.3,-0.5%,-0.7,1.6,7.6%,3.6%
CSc1ncccc1C(=O)N1CCN(S(=O)(=O)c2ccc(F)cc2)CC1,3.3,-2.3%,-0.4,-6.1,18.2%,13.3%
Cc1cccc(C(=O)N[C@H](C(=O)OCc2cc(=O)n3c(n2)sc2ccccc23)C(C)C)c1,-0.9,-29.9%,0.7,0.4,2.0%,-19.9%
CC(C)OC(=O)CSc1nnc(-c2cccnc2)n1N,-2.9,-6.9%,0.1,-7.6,15.6%,13.7%
Cc1cc2ccccn2c1C(=O)c1cccc([N+](=O)[O-])c1,-23.3,nt,2.1,0.1,0.0%[15.4 µM],10.2%
CC(C)(O)P(C)(=O)c1ccccc1 (centres undefined),-7.2,-0.5%,0.6,1.0,-22.7%,-1.1%
O=c1cnnc(N/N=C/c2ccc3c(c2)OCO3)[nH]1,nt,1.1%,nt,-2.9,11.7%,-13.2%
COc1cc([N+](=O)[O-])ccc1NC(=O)C[n+]1ccccc1C,-1.8,0.7%,-0.2,-3.6,0.8%,3.8%
CC(=O)Nc1ccc(S(=O)(=O)Nc2nc3ccccc3nc2Cl)cc1,-1.3,-6.7%,-0.1,1.8,7.94µM*,8.9%
C=CCNc1nc2cc(-c3cccc(Cl)c3)sc2c(=O)n1C,-16.1,-14.1%,0.2,nt,nt,nt
Cc1nnc(NC(=O)C(C)Sc2nnc(-c3ccco3)n2C)s1 (centres undefined),-9.4,nt,1.0,-5.8,38.3%,0.3%
CCN(CC)C(=O)n1nc(C)c(CN2C(=O)c3ccccc3C2=O)c1C,5.0,-0.3%,-0.2,nt,?,0.3%
C=CCNC(=O)c1c(-c2c(F)cccc2Cl)noc1C,-7.1,2.0%,0.1,0.5,-19.2%,-6.1%
CCOC(=O)c1cnn(CC2CCCCC2)c1N,17.0,2.7%,-1.7,-2.5,-26.8%,2.9%
CC(=O)Oc1ccc2c(=O)c(-c3ccccc3)c(C)oc2c1,26.2,79.8%,0.2,-4.2,16.2%,-7.2%
CCOC(=O)C(CC)n1nnc2sc(-c3ccccc3)cc2c1=O (centres undefined),4.9,4.5%,4.3,nt,nt,nt

Next part
Molecule,TRPML1 blocker,ClpP mod,TRPML1 ag,Menin MLL FP FL,gsp ag,gsp antagonist
CCCCOc1ccc(C(=O)NCC(=O)NCC(c2ccco2)N2CCCCC2)cc1 (centres undefined),2.1,0.6%,1.1,nt,-6.2%,3.6%
CCCCN(CC)Cc1ccc(CNS(=O)(=O)c2cc3c(cc2Cl)NC(=O)CO3)o1,-13.2,-0.7%,2.0,nt,nt,nt
CC1(c2ccc(OC(F)F)cc2)NC(=O)N(CC(=O)Nc2ccccc2)C1=O (centres undefined),-12.9,nt,?,-4.7,3.5%[15.4 µM],-2.7%
CCOc1ccc2[nH]c(=O)c(C(c3nnnn3Cc3ccco3)N3CCC(C)CC3)cc2c1 (centres undefined),10.8,?,2.1,?,-10.6%,-9.6%[15.4 µM]
COc1ccc(OC)c(S(=O)(=O)NCC(c2ccco2)N2CCc3ccccc32)c1 (centres undefined),-1.7,-2.5%,1.9,nt,-48.2%[inhibitor],-8.3%
CN(C)C(=O)Cn1c(=O)n(C)c2ccccc21,0.7,0.3%,-0.2,2.0,10.7%,3.2%
CCCCn1c(N)c(N(CCOC)C(=O)c2ccc(N3CCCC3)c([N+](=O)[O-])c2)c(=O)[nH]c1=O,9.3,-2.6%,-0.5,nt,-2.1%[15.4 µM],13.8%
Cc1cccc(N2Cc3ccccc3C2=NC(=O)c2ccc(Cl)nc2)c1,-11.5,nt,3.1,9.7,-4.6%[15.4 µM],-5.3%
COc1ccc(N2CCN(c3oc(COc4ccc(Cl)cc4Cl)nc3C#N)CC2)cc1,49.2,-3.1%,0.0,5.4,2.1%,-1.6%
Cc1c(C(=O)Nc2ccc(F)cc2)nnn1-c1cccc(C(F)(F)F)c1,12.5,nt,0.0,-1.7,2.3%[15.4 µM],5.5%
Cn1c(=O)c2c(nc(N/N=C/c3ccc(OC(=O)c4ccco4)cc3)n2Cc2ccccc2Cl)n(C)c1=O,58.4,0.1%,2.3,0.4,-7.2%[15.4 µM],-1.3%
CC(=O)N1CCc2cc(S(=O)(=O)NCCC(=O)NC3CCCCCC3)ccc21,3.2,0.1%,-1.2,3.4,5.1%,8.0%
O=C(N/N=C1/CC2C=CCC12)c1ccco1 (centres undefined),5.9,-0.7%,0.1,11.7,-0.1%[15.4 µM],4.3%
O=C(c1ccc(-c2cccc(C(F)(F)F)c2)o1)N1CCN(c2ccccc2O)CC1,4.4,2.3%,-0.1,nt,-0.7%[15.4 µM],-5.5%
O=C(Nc1cc(Cl)ccc1O)c1cc2n(n1)C(C(F)(F)F)CC(c1ccc3c(c1)OCO3)N2 (centres undefined),-1.6,-3.8%,-0.1,6.8,-48.5%[inhibitor],-25.3%
CCc1nc2ccc(C(=O)NCCc3ccccc3OC)cc2nc1CC,1.6&10.8,-1.2%&-11.9%,1.2&-0.5,1.8,-41.6%[inhibitor],-2.1%
